# Assay outcomes as filed in PubChem BioAssay.
# Vaccinia inh: Vaccinia orthopox stage-specific inhibition; Vaccinia-infected cells, mCherry/Venus stage reporter fluorescence; active compounds read low; some inactives read as strong as hits; activity change (mCherry), % (test concentration not listed); 0.01% of 89,000 active;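 active means mCherry past -33% and 40 or more points under the early reporter, replicates agreeing; inconclusive means past -33% without that gap or agreement; tested in A549 cells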;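 further: scaled between vehicle wells and reference inhibitor wells; 23 nL library stock went into each well; one replicate is shown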
# Vaccinia inh Venus: also measured in Vaccinia inh; calls as there; activity change (Venus), %; measured here: Venus reporter, other viral stage;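 negative = less Venus signal; first of two replicates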
# Numbers without * were called inactive; u = inconclusive; x = no result given.
SMILES,Vaccinia inh,Vaccinia inh Venus
C[C@H](CO)N1C[C@H](C)[C@H](CN(C)C(=O)Cc2ccccc2)Oc2cc(C#Cc3ccccc3F)ccc2S1(=O)=O,-24,-11
COc1ccccc1CN1[C@@H](CO)[C@@H]2c3ccccc3N(C(=O)c3ccc(F)cc3)C[C@@H]21,-4,-5
Cc1cccc(S(=O)(=O)N2C[C@H]3[C@@H](c4ccccc42)[C@H](CO)N3C(=O)CC2CC2)c1,-4,2
CN1c2ccc(C3=CCCCC3)cc2[C@H]2[C@H](CCN2C(=O)C2CCCC2)[C@@H]1CO,-27,-24
COc1ccc(NC(=O)N[C@@H]2CC[C@H](CCNC(=O)CCN3CCCCC3)O[C@@H]2CO)cc1,7,4
C[C@H]1CN([C@@H](C)CO)C(=O)c2cc(/C=C/c3ccccc3)cnc2O[C@@H]1CN(C)C(=O)CN(C)C,4,-2
C[C@H]1CN([C@@H](C)CO)S(=O)(=O)c2ccc(C#CC(C)(C)O)cc2O[C@H]1CN(C)CC1CC1,7,-9
C[C@H](O)C#Cc1ccc2c(c1)O[C@H](CN(C)Cc1ccccn1)[C@@H](C)CN([C@H](C)CO)S2(=O)=O,2,2
C[C@H](CO)N1C[C@H](C)[C@@H](CN(C)C(=O)Nc2ccc3c(c2)OCO3)Oc2cc(C#Cc3ccccc3)ccc2S1(=O)=O,-7,-11
COCC#Cc1ccc([C@@H]2[C@@H](CO)N3C(=O)CN(C(=O)Nc4ccc(F)cc4)C[C@H]23)cc1,21,13
COCC(=O)N1[C@@H]2CNc3ccccc3[C@@H]2[C@@H]1CO,17,18
C[C@H](O)C#Cc1ccc2c(c1)O[C@@H](CN(C)C(=O)CC1CC1)[C@H](C)CN([C@@H](C)CO)S2(=O)=O,6,6
C[C@@H]1CN([C@@H](C)CO)S(=O)(=O)c2ccc(-c3cncnc3)cc2O[C@H]1CN(C)CC1CC1,29,21
C[C@H]1CN([C@@H](C)CO)C(=O)c2cc(NS(=O)(=O)c3ccccc3)ccc2O[C@H]1CN(C)C,12,14
O=C(C[C@@H]1CC[C@@H]2[C@H](COC[C@H](O)CN2Cc2ccc(Cl)cc2)O1)Nc1nccs1,-19,-8
C[C@H](CO)N1C[C@H](C)[C@H](CN(C)Cc2ccc(C(=O)Nc3ccccc3N)cc2)Oc2c(NC(=O)C3CCOCC3)cccc2C1=O,4,8
O=C([C@H]1[C@H](CO)[C@H]2Cn3c(cccc3=O)[C@H]2N1C(=O)C1CCCCC1)N1CCOCC1,19,15
COCC(=O)N1CC2(C1)[C@@H](c1ccc(-c3ccccc3)cc1)[C@H](CO)N2C(=O)COC,9,5
C[C@@H]1CN([C@@H](C)CO)C(=O)c2cc(C#CC3CC3)cnc2O[C@@H]1CN(C)C(=O)c1ccc(F)cc1,9,9
C[C@H]1CN([C@@H](C)CO)S(=O)(=O)c2ccc(-c3cccnc3)cc2O[C@@H]1CN(C)C(=O)c1cccc(F)c1,18,14
C[C@H](CO)N1C[C@H](C)[C@@H](CN(C)Cc2ccccc2)Oc2ccc(NC(=O)CCC(F)(F)F)cc2C1=O,3,4
O=C(C[C@H]1CC[C@@H]2NC[C@@H](O)COC[C@H]2O1)Nc1ccccc1,4,-6
C[C@@H]1CN([C@H](C)CO)C(=O)Cc2cc(NC(=O)Nc3ccccc3)ccc2O[C@H]1CN(C)CC1CC1,13,9
O=C(CC(F)(F)F)N1C[C@@H]2[C@H](c3ccccc31)[C@@H](CO)N2C(=O)c1ccncc1,9,10
Cc1ccc(-c2ccc3c(c2)O[C@H](CN(C)Cc2ccc(F)cc2)[C@@H](C)CN([C@H](C)CO)S3(=O)=O)cc1,-27,-24
COCC(=O)N1CC2(C1)[C@H](c1ccc(-c3ccc(F)cc3)cc1)[C@H](CO)N2C(C)=O,0,8
Cc1ccc(S(=O)(=O)Nc2ccc3c(c2)C(=O)N([C@@H](C)CO)C[C@@H](C)[C@@H](CN(C)Cc2ccc(C(=O)O)cc2)OCCCC[C@@H](C)O3)cc1,42,32
C[C@H]1CCCCO[C@@H](CN(C)C(=O)Nc2ccc(F)cc2)[C@@H](C)CN([C@@H](C)CO)C(=O)c2cc(NS(=O)(=O)c3ccc(F)cc3)ccc2O1,u,x
COc1cccc(S(=O)(=O)N(C)C[C@@H]2OCc3ccccc3-c3ccccc3C(=O)N([C@H](C)CO)C[C@H]2C)c1,14,-3
O=C(C[C@@H]1C[C@@H]2c3cc(NC(=O)CC4CC4)ccc3O[C@@H]2[C@@H](CO)O1)NCc1cccc(F)c1,7,1
COCCNC(=O)[C@@H]1[C@@H](CO)[C@@H]2Cn3c(ccc(-c4ccccc4)c3=O)[C@H]1N2C,0,8
C[C@@H]1CCCCO[C@@H](CN(C)C(=O)NC2CCCCC2)[C@H](C)CN([C@@H](C)CO)C(=O)c2cc(NS(=O)(=O)c3ccccc3)ccc2O1,-20,-14
C[C@@H]1CN([C@@H](C)CO)C(=O)c2cc(NC(=O)CCCCCC(=O)Nc3ccccc3N)ccc2O[C@@H]1CN(C)Cc1ccc2c(c1)OCO2,-3,-2
COc1ccc2c3c(n(C)c2c1)[C@@H](CO)N(Cc1ccccc1)CC31CN(C(=O)c2ccccc2F)C1,-22,-12
C[C@@H]1CN([C@@H](C)CO)C(=O)c2cc(-c3ccc(C(=O)N(C)C)cc3)cnc2O[C@@H]1CN(C)C(=O)c1cccnc1,17,5
COc1ccc(NC(=O)N(C)C[C@@H]2OCCCC[C@H](C)Oc3ccc(NC(=O)NC(C)C)cc3C(=O)N([C@H](C)CO)C[C@@H]2C)cc1,6,8
O=C(c1ccc2c(c1)OCO2)N1CC2(C1)[C@H](c1ccccc1)[C@@H](CO)N2C(=O)C1CCCC1,7,-1
CC(C)CC#Cc1ccc2c(c1)O[C@H](CN(C)C)[C@H](C)CN([C@H](C)CO)S2(=O)=O,-28,-19
C[C@@H]1CN([C@H](C)CO)C(=O)Cc2cc(NC(=O)CCCCCC(=O)Nc3ccccc3N)ccc2O[C@@H]1CN(C)CC1CCCCC1,u,x
O=C(c1ccccc1)N1CC2(C1)[C@H](c1ccccc1)[C@H](CO)N2C(=O)CC1CC1,0,9
Cc1ccc(S(=O)(=O)N(C)C[C@@H]2Oc3ccc(NC(=O)Nc4ccc5c(c4)OCO5)cc3CC(=O)N([C@@H](C)CO)C[C@@H]2C)cc1,-32,-32
C[C@H](CO)N1C[C@H](C)[C@H](CN(C)CC2CCCCC2)Oc2ccc(NC(=O)Nc3cccc4ccccc34)cc2C1=O,u,x
CCCN(C)C[C@H]1Oc2cc(C#Cc3ccccc3)ccc2S(=O)(=O)N([C@H](C)CO)C[C@@H]1C,6,-1
Cc1cc(C(=O)Nc2ccc3c(c2)C(=O)N(C)[C@H]2CC[C@H](CC(=O)NCc4ccc(-c5ccccc5)cc4)O[C@@H]2CO3)no1,u,x
Cc1noc(C)c1S(=O)(=O)N(C)C[C@@H]1OCCCC[C@H](C)Oc2ccc(N(C)C)cc2C(=O)N([C@H](C)CO)C[C@@H]1C,-23,-17
Cc1noc(C)c1NC(=O)Nc1ccc2c(c1)C(=O)N([C@H](C)CO)C[C@@H](C)[C@H](CN(C)C(=O)Nc1cccc3ccccc13)OCCCC[C@H](C)O2,15,11
CN(C)C(=O)[C@@H]1[C@@H](CO)[C@@H]2Cn3c(cccc3=O)[C@H]1N2CC1CCCC1,15,12
C[C@H]1CN([C@@H](C)CO)C(=O)c2cccc(N(C)C)c2O[C@H]1CN(C)C(=O)Nc1ccccc1,3,2
Cc1ccccc1S(=O)(=O)N1[C@@H](C#N)[C@@H](c2ccc(C#CC3CCCCC3)cc2)[C@@H]1CO,u,x
C[C@H]1CN([C@@H](C)CO)S(=O)(=O)c2ccc(C#Cc3ccccc3)cc2O[C@H]1CN(C)C(=O)Nc1ccc2c(c1)OCO2,-13,-21
CC(C)NC(=O)Nc1ccc2c(c1)C(=O)N([C@H](C)CO)C[C@@H](C)[C@H](CN(C)C(=O)CCCN(C)C)OCCCC[C@@H](C)O2,18,2
COc1ccc(S(=O)(=O)Nc2ccc3c(c2)C(=O)N([C@@H](C)CO)C[C@@H](C)[C@@H](CN(C)S(=O)(=O)c2ccc(OC)cc2)O3)cc1,-16,-5
CN(C)C(=O)c1cccc(-c2ccc([C@H]3[C@@H](CO)N4CCCCN(C(=O)C5CCC5)C[C@H]34)cc2)c1,2,-10
CC(C)NC(=O)Nc1ccc2c(c1)C(=O)N([C@H](C)CO)C[C@H](C)[C@@H](CN(C)C(=O)Cc1ccccc1)OCCCC[C@@H](C)O2,35,15
CCC(=O)N1[C@@H](CO)[C@@H]2c3ccccc3N(C(=O)Nc3ccccc3Cl)C[C@@H]21,-3,-7
O=C(C[C@@H]1C[C@H]2c3cc(NC(=O)NC4CCCC4)ccc3O[C@H]2[C@@H](CO)O1)NCc1ccc2c(c1)OCO2,1,0
CN1[C@@H]2Cn3c(ccc(-c4ccccc4)c3=O)[C@H]1[C@@H](C(=O)NCCCN1CCOCC1)[C@@H]2CO,4,-6
C[C@H](CO)N1C[C@H](C)[C@@H](CN(C)C(=O)Nc2ccccc2)OCCCC[C@H](C)Oc2ccc(NC(=O)Nc3ccc(F)cc3)cc2C1=O,16,6
O=C(C1CCCC1)N1CC[C@H]2[C@H](CO)Nc3ccc(C4=CCCCC4)cc3[C@H]21,18,9
O=C(C[C@@H]1C[C@@H]2c3cc(NC(=O)C4CCOCC4)ccc3O[C@@H]2[C@H](CO)O1)NCc1ccccn1,6,6

# In a second layout: five of the compounds above.
# Second line of a record: Vaccinia inh	Vaccinia inh Venus
- Cc1cccc(S(=O)(=O)N2C[C@H]3[C@@H](c4ccccc42)[C@H](CO)N3C(=O)CC2CC2)c1
    -4	2
- CN1c2ccc(C3=CCCCC3)cc2[C@H]2[C@H](CCN2C(=O)C2CCCC2)[C@@H]1CO
    -27	-24
- COc1ccc(NC(=O)N[C@@H]2CC[C@H](CCNC(=O)CCN3CCCCC3)O[C@@H]2CO)cc1
    7	4
- C[C@H]1CN([C@@H](C)CO)C(=O)c2cc(/C=C/c3ccccc3)cnc2O[C@@H]1CN(C)C(=O)CN(C)C
    4	-2
- C[C@H]1CN([C@@H](C)CO)S(=O)(=O)c2ccc(C#CC(C)(C)O)cc2O[C@H]1CN(C)CC1CC1
    7	-9

# (list continues)
SMILES,Vaccinia inh,Vaccinia inh Venus
COc1ccc(S(=O)(=O)N(C)C[C@H]2Oc3ccc(NC(=O)Nc4cccc5ccccc45)cc3CC(=O)N([C@H](C)CO)C[C@H]2C)cc1,-2,0
C[C@H](CO)N1C[C@H](C)[C@H](CN(C)C(=O)NC2CCCCC2)Oc2ccc(NC(=O)C3CC3)cc2CC1=O,2,7
C[C@@H]1CN([C@H](C)CO)C(=O)c2cc(NC(=O)Nc3cccc4ccccc34)ccc2O[C@@H](C)CCCCO[C@@H]1CN(C)Cc1ccccc1,u,x
C[C@H]1CCCCO[C@H](CN(C)C(=O)CCCN(C)C)[C@@H](C)CN([C@@H](C)CO)C(=O)c2cc(NC(=O)Nc3ccccc3)ccc2O1,6,4
C[C@@H]1CN([C@H](C)CO)S(=O)(=O)c2ccc(-c3ccncc3)cc2O[C@@H]1CN(C)Cc1cccnc1,-8,-14
CCCNC(=O)[C@H]1[C@H](CO)[C@H]2Cn3c(ccc(C4=CCCCC4)c3=O)[C@@H]1N2Cc1cocn1,15,12
CN(C)C(=O)C[C@H]1CC[C@H]2[C@@H](COC[C@H](O)CN2CC2CC2)O1,5,9
CCNC(=O)C[C@H]1CC[C@@H]2[C@@H](COc3ccc(NC(=O)Cc4cccs4)cc3C(=O)N2C)O1,7,9
COc1ccc(S(=O)(=O)N[C@H]2C=C[C@@H](CC(=O)N3CCc4ccccc4C3)O[C@@H]2CO)cc1,-17,-11
CC(C)[Si](C#CCCCC#N)(O[C@H](c1ccccc1)c1cn(Cc2cccc(Cl)c2)nn1)C(C)C,1,-3
CCCNC(=O)Nc1ccc2c(c1)OC[C@@H](C)N(Cc1ccccn1)C[C@H](C)[C@H](OC)CN(C)C2=O,-2,-3
C[C@@H]1CN([C@@H](C)CO)C(=O)c2cc(C#CC3(O)CCCC3)cnc2O[C@H]1CN(C)C(=O)Cc1ccccc1,5,1
C[C@@H]1CCCCO[C@@H](CN(C)C(=O)C2CCCCC2)[C@@H](C)CN([C@H](C)CO)C(=O)c2cc(NS(C)(=O)=O)ccc2O1,u,x
CC(C)NC(=O)N(C)C[C@@H]1Oc2ncc(C#CC3(O)CCCC3)cc2C(=O)N([C@@H](C)CO)C[C@@H]1C,21,6
COCCNC(=O)C[C@@H]1C[C@H]2c3cc(NS(=O)(=O)c4ccccc4)ccc3O[C@H]2[C@@H](CO)O1,-6,-7
CC(=O)N(C)C[C@H]1Oc2ncc(/C=C/c3ccccc3)cc2C(=O)N([C@H](C)CO)C[C@H]1C,0,10
C[C@@H]1CN([C@@H](C)CO)C(=O)c2cccc(NC(=O)NC3CCCCC3)c2O[C@@H]1CN(C)CC1CCCCC1,10,13
CC(=O)N(C)C[C@@H]1Oc2cc(C#CC(C)(C)O)ccc2S(=O)(=O)N([C@H](C)CO)C[C@H]1C,5,-5
CCCN(C)C[C@H]1Oc2cc(C#CCC3CCCC3)ccc2S(=O)(=O)N([C@@H](C)CO)C[C@H]1C,-17,-14

# Profiles as entered above. Values in the order: Vaccinia inh	Vaccinia inh Venus
# `C[C@@H]1CN([C@H](C)CO)S(=O)(=O)c2ccc(-c3ccncc3)cc2O[C@@H]1CN(C)Cc1cccnc1` as listed: -8	-14
# `COc1ccc(S(=O)(=O)N(C)C[C@H]2Oc3ccc(NC(=O)Nc4cccc5ccccc45)cc3CC(=O)N([C@H](C)CO)C[C@H]2C)cc1` as listed: -2	0
# `C[C@H]1CCCCO[C@H](CN(C)C(=O)CCCN(C)C)[C@@H](C)CN([C@@H](C)CO)C(=O)c2cc(NC(=O)Nc3ccccc3)ccc2O1` as listed: 6	4
# `CC(=O)N(C)C[C@H]1Oc2ncc(/C=C/c3ccccc3)cc2C(=O)N([C@H](C)CO)C[C@H]1C` as listed: 0	10

# The list is partial (hit frequency here may not be typical).
